Vaccinia mCherry – inhibitors of vaccinia virus infection (mCherry reporter signal); actives 0.63% (n = 310,000); Vaccinia virus mCherry reporter infection, fluorescence; about a quarter of the inactives have no number; Potency, µM (doses to about 36.5 µM), for the others: top-dose activity change, negative = inhibition, usual class: inhibitors; active = well fitted inhibition curve with a large enough effect; inconclusive = small, poorly fitted or top-dose-only effect; inactive = no such curve, though single readings can be large or run the other way; tested in A549 cells; further: nearly all actives have a fitted effect of over 35% in size; inactives centre near -10
VACV Venus inh – vaccinia inhibition (Venus reporter); Vaccinia virus Venus reporter expression, fluorescence; actives 0.46% (n = 330,000); Potency, µM (series often up to 36.5 µM), for the others: top-dose activity change, negative = inhibition, actives largely listed as inhibitors; active means well fitted inhibition curve with a large enough effect; inconclusive means small, poorly fitted or top-dose-only effect; inactive means no such curve, though single readings can be large or run the other way; tested in A549 cells; further: nearly all actives have a fitted effect of over 30% in size; inactives centre near -10
Starred values were filed as active, the others as inactive; i = inactive; u = inconclusive; x = not tested or not shown; & = joins results of further samples. On the % scale 0 is the no-effect control and ±100 the full control effect; potency means the concentration at half of the fitted maximal effect.

SMILES	Vaccinia mCherry	VACV Venus inh
COc1ncccc1-c1ccc2nncn2c1	-11%	-16%
CCOc1ccccc1CNC(=O)c1oc2c(c1C)-c1[nH]ncc1CC2	-13%	-7%
Cc1nc(-c2cnn(-c3ccccc3)c2)c2cc(C)oc2n1	u	-26%
COC(=O)c1sccc1S(=O)(=O)N1CCCC(N(C)CCc2ccccn2)C1 (stereo not drawn)	-11%	-1%
CC[C@@]1(O)C(=O)OCc2c1cc1n(c2=O)Cc2cc3ccccc3nc2-1	u	u
O=P(O)(O)c1ccccc1OCCOCCOc1ccccc1P(=O)(O)O	-5%	-7%
O=C(Nc1ccc2c(c1)OCCO2)C(c1cc2ccccc2o1)N1CCN(c2ccc(F)cc2)CC1 (stereo not drawn)	-25%	-18%
O=C(CN1C(=O)c2ccccc2C1=O)Nc1ccc(S(=O)(=O)NCC2CCCO2)cc1 (stereo not drawn)	1%	-6%
CC(NS(=O)(=O)c1ccc(F)cc1)C(=O)NCc1ccncc1 (stereo not drawn)	x	-8%
C=CCNC(=O)CC(=O)N/N=C/c1ccc(F)cc1	-8%	-6%
COc1ccc(C(=O)Nc2nc3ccc4nc(C)sc4c3s2)cc1	i	-7%
Cc1ccc(CN2CCN(c3ccccc3Cl)CC2)o1	-13%	-9%
CCOc1cc(/C=C2\SC(=O)N=C2N)ccc1O	u	u
CN1C(=S)SC2CS(=O)(=O)CC21C (stereo not drawn)	i	-16%
NC(=O)C1CCN(C(=O)c2ccc(NS(=O)(=O)c3ccc(Br)s3)cc2)CC1	-15%	-7%
Cc1ccc(-c2cc3ncc4c(n3n2)-c2ccccc2OC4)cc1	-2%	0%
COc1ccc(C(=O)Nc2cc(-c3ccccc3)nn2-c2ccccc2)cc1	-4%	-6%
CCOC(=O)c1ccc(NC(=O)N2CCN(S(C)(=O)=O)CC2)cc1	-10%	-11%
CN(C)C(=O)c1ccc2c(c1)N(CC(=O)NCc1ccc(F)cc1)C(=O)C1CCCCN21 (stereo not drawn)	-15%	-19%
CCOC(=O)c1c2c3c(cccc3n(C)c1=O)C(=O)c1ccccc1-2	-12%	11%
Cc1nc2c(C)cccn2c1/C(O)=C1\C(=O)C(=O)N(CCN(C)C)C1c1ccncc1 (stereo not drawn)	-7%	-12%
CC(=O)CCN1C(=O)NC2(CCCc3ccccc32)C1=O (stereo not drawn)	i	-14%
Cc1ccc(C)c(Cn2c(-c3cccs3)nc3ccccc32)c1	3%	-4%
COCCNC(=O)COc1ccc(C)c(C)c1	i	-19%
CC(=O)c1cccc(N(CC(=O)NC2CCCC2)C(=O)CNC(=O)c2cccs2)c1	-9%	0%
O=C(O)CNC(=S)N(Cc1ccccc1)Cc1cccs1	-14%	-10%
COc1ccccc1-n1cnnc1SCC(=O)Nc1cc(C)on1	-17%	-12%
O=C(NC1CCCC1)C1C(c2ccccc2)=Nc2ccccc2N1C(=O)c1cc(Cl)cc(Cl)c1 (stereo not drawn)	u	-8%
CCCOc1ccccc1NC(=O)/C=C/c1ccc(OC)c(S(=O)(=O)N2CCOCC2)c1	u	u
COc1ccc(C2NCCc3c2[nH]c2ccccc32)cc1CSc1nc2ccccc2s1 (stereo not drawn)	u	u
CSc1ccc(Cn2c(C)c(C(=O)NCc3cccc(C)c3)sc2=O)cc1	-15%	-13%
CC(=O)NC(CC(=O)Nc1cccc(S(=O)(=O)N2CCOCC2)c1)c1ccccc1 (stereo not drawn)	-4%	-3%
CCOC(=O)C1=C(N)Oc2c(c(=O)oc3ccccc23)C12C(=O)N(C)c1ccccc12 (stereo not drawn)	-6%&-11%	-10%&-15%
CC(C)(C)n1nc2c(c1NC(=O)c1ccc(S(=O)(=O)N3CCCCC3)cc1)CS(=O)C2 (stereo not drawn)	-13%	-10%
O=C(c1[nH]c(C(F)(F)F)nc1-c1ccccc1)N1CCN(C(=O)C2CCCO2)CC1 (stereo not drawn)	16%	3%
Cc1ccc(NC(=O)CN2C(=O)COc3ccc(S(=O)(=O)N4CCCCCC4)cc32)cc1Cl	-26%	-15%
CCCCCNC(=O)c1c[nH]c2ccc(S(=O)(=O)N3CCC4(CC3)OCCO4)cc2c1=O	0%	-29%
O=c1cc(CO)oc(C(Nc2ccccn2)c2ccccc2Cl)c1O (stereo not drawn)	-12%	-22%
CC(C)COc1ccc(C(=O)NC(=S)Nc2ccc(CN3CCOCC3)cc2)cc1	-2%	9%
CNS(=O)(=O)c1cn(CC(=O)N2CCN(c3ccc(Cl)cc3)CC2)cc1S(=O)(=O)NC	-15%	3%
Cc1ccc(S(=O)(=O)N2CCN(C(=O)COC(=O)CCOc3cc(C)ccc3C)CC2)c(C)c1	-14%	-13%
CCOc1ccc(C2C(C#N)=C(N)Oc3nc[nH]c(=O)c32)cc1 (stereo not drawn)	i	-14%
CC(C)(C)OC(=O)N1CCN(C(=O)c2[nH]cnc2C(=O)Nc2ccon2)CC1	-17%	-8%
O=C1CCC[C@@H]2CC(N(Cc3cc4ccccc4s3)c3ccccc3)C[C@@H]3CCN1[C@H]23 (stereo partly drawn)	i	-11%
O=C(Nc1ccc(F)cc1)c1ccc(S(=O)(=O)NCC2CCCO2)cc1 (stereo not drawn)	-23%	-21%
O=C(NC1CCC1)C1CCC(=O)N(Cc2ccc(Cl)cc2)C1 (stereo not drawn)	i	-9%
Oc1ccccc1Nc1nc(-c2ccccc2O)nc2ccccc12	-22%	-25%
COc1cccc(N2CCN(C(=O)c3ccc4nc[nH]c4c3)CC2)c1	-5%	-3%
O=C(N/N=C/c1c(O)ccc2ccccc12)c1[nH]ncc1Br	2.5µM*	u
O=c1c2ccccc2[nH]c(=S)n1CCc1ccccc1	0%	-6%

Reformatted as labelled records: entries from further up.
molecule: O=C(N/N=C/c1c(O)ccc2ccccc12)c1[nH]ncc1Br
  Vaccinia mCherry: 2.5µM*	VACV Venus inh: u

molecule: Cc1ccc(S(=O)(=O)N2CCN(C(=O)COC(=O)CCOc3cc(C)ccc3C)CC2)c(C)c1
  Vaccinia mCherry: -14%	VACV Venus inh: -13%

molecule: COc1cccc(N2CCN(C(=O)c3ccc4nc[nH]c4c3)CC2)c1
  Vaccinia mCherry: -5%	VACV Venus inh: -3%

molecule: O=C(NC1CCC1)C1CCC(=O)N(Cc2ccc(Cl)cc2)C1 (stereo not drawn)
  Vaccinia mCherry: i	VACV Venus inh: -9%

Other compounds follow.
SMILES	Vaccinia mCherry	VACV Venus inh
COc1ccc(OC)c(CNC(=O)c2ccc(N3Cc4ccccc4Oc4ncccc43)s2)c1	-6%	0%
CN(Cc1ccccc1)c1ccc(/C=C/c2sc3ccccc3[n+]2C)cc1	u	u
O=C(c1ccc(Cl)c(Cl)c1)N1CCC(=O)N([C@H](COCc2cccc(C(F)(F)F)c2)Cc2ccccc2)CC1	19%	-8%
CCc1cccc(OCC(=O)Nc2ccc(S(=O)(=O)Nc3ncccn3)cc2)c1	-5%	4%
CC(Sc1nccn1C)C(=O)Nc1ccccc1C#N (stereo not drawn)	-2%	5%
COc1ccc(NC(=O)Nc2cc(C)cc(C)c2)cn1	i	-16%
COc1ccc(CC(N)c2csc(NC(=O)c3ccccc3OC)n2)cc1 (stereo not drawn)	10%	-3%
CC1CCCN(C(=S)NCc2ccccc2)C1 (stereo not drawn)	-19%	-8%
CC1(C)N=C(c2ccccc2)[C@@H]2C(c3ccc([N+](=O)[O-])cc3)N21 (stereo partly drawn)	-9%	-17%
COc1ccc(CCNC(=O)CN(C2CCCCC2)S(C)(=O)=O)cc1	x	-2%
CC(OC(=O)c1cccc(-n2cnnn2)c1)C(=O)Nc1ccc(F)cc1Cl (stereo not drawn)	-26%	-7%
O=C(NCc1ccccc1F)c1cccc(S(=O)(=O)NCc2ccccc2)c1	-3%	-13%
CCC(Cn1nnc2ccccc2c1=O)NC(=O)Nc1ccc(C)cc1 (stereo not drawn)	-3%	-8%
CN(C)c1ccc(C(=O)NNC(=O)c2ccc(Cl)cc2)cc1	-13%	-10%
O=C(c1cc(-c2ccc(Cl)cc2)n(-c2ccc(Cl)cc2)n1)N1CCOCC1	x	-18%
CCc1cccc(CC)c1NC(=O)c1c(C)oc2ccc(O)c(CN3CCOCC3)c12	-1%	5%
COc1ccc(-n2c(=S)[nH]c3cc(C(=O)Nc4ccc(OC)c(OC)c4)ccc3c2=O)cc1	i	1%
O=C(CSc1nnnn1-c1cccnc1)Nc1ccc(OCc2ccccc2)cc1	-5%	-26%
COc1cccc(CNC(=O)C(NS(=O)(=O)c2ccc3c(c2)oc(=O)n3C)C(C)C)c1 (stereo not drawn)	-2%	3%
COc1ccc(NC(=O)c2cc([N+](=O)[O-])ccc2N2CCNCC2)cc1	-6%	-15%

A different layout for part of the listing above.
Results follow in this order: Vaccinia mCherry | VACV Venus inh
O=c1cc(CO)oc(C(Nc2ccccn2)c2ccccc2Cl)c1O (stereo not drawn)
  -12% | -22%
CC(C)COc1ccc(C(=O)NC(=S)Nc2ccc(CN3CCOCC3)cc2)cc1
  -2% | 9%
CNS(=O)(=O)c1cn(CC(=O)N2CCN(c3ccc(Cl)cc3)CC2)cc1S(=O)(=O)NC
  -15% | 3%
Cc1ccc(S(=O)(=O)N2CCN(C(=O)COC(=O)CCOc3cc(C)ccc3C)CC2)c(C)c1
  -14% | -13%
CCOc1ccc(C2C(C#N)=C(N)Oc3nc[nH]c(=O)c32)cc1 (stereo not drawn)
  i | -14%

Further entries follow.
SMILES	Vaccinia mCherry	VACV Venus inh
COc1ccc(-c2[nH]nc3c2C2(C(=O)N(CC(=O)O)c4ccccc42)C(C#N)=C(N)O3)cc1OC (stereo not drawn)	-9%	-7%
CCOC(=O)c1ccc(NC(=O)CC2C(=O)N(c3cccc(C)c3)C(=O)N2CCOC)cc1 (stereo not drawn)	1%	-2%
COc1ccc(CNC(=O)CN(C)c2nn3c(=O)cc(C)nc3s2)cc1	-3%	2%
COC(=O)c1ccc(Cn2cnc3c(cnn3-c3ccc(F)cc3)c2=O)o1	-28%	-22%
Cc1c(Cl)cccc1NC(=O)CSC(C)c1nc2ccccc2c(=O)[nH]1 (stereo not drawn)	-12%	-11%
CCC(C)c1ccc(OCCn2ccnc2)cc1 (stereo not drawn)	-28%	-20%
CCOC(=O)N1CCN(c2nc(SC)nc3sc4c(c23)CC(C)(C)OC4)CC1	x	-3%
COC(=O)C1CCCCN1C(=O)c1ccc2oc(Cc3ccccc3)nc2c1 (stereo not drawn)	-1%	-7%
N#Cc1ccc(Cn2c(=O)c(C#N)c3n(c2=O)CCC3)cc1	-15%	-5%
COc1ccc(OCC(=O)N2CCN(C(=O)c3cccs3)CC2)cc1	-10%	3%
COc1cccc(OC)c1NC(=O)c1nc2c(nnn2Cc2ccccc2Cl)c(=O)[nH]1	i	-6%
COc1ccc(CN(Cc2ccco2)c2cnc(S(C)(=O)=O)nc2C(=O)Nc2ccc(F)cc2)cc1	-13%	-10%
NNc1nc2c(Cl)ccc(Cl)c2s1	-8%	-8%
COC(=O)Cn1cc(/C=C2\C(=O)NC(=O)N(c3ccccc3)C2=O)c2ccccc21	-6%	-19%
O=C(NCCN1CCN(Cc2ccc([N+](=O)[O-])cc2)CC1)C(=O)Nc1ccccc1	i	-12%
COc1cc2nc(NCc3ccc(C)cc3)n3nc(-c4ccccc4)nc3c2cc1OC	-9%	-15%
COc1ccc(CCNC(=O)CSc2nnc(-c3ccccc3)c3ccccc23)cc1OC	u	-23%
Cc1c(C(=O)OC(C)C)[nH]c2c1C(=O)CC(C)(C)C2	-6%	-8%
CCOc1cc(C(C#N)N2CCCCC2)ccc1OC (stereo not drawn)	x	-19%
COC(=O)[C@]12CCCCC=C1N(CCC1=CCCCC1)C(=O)[C@H](CC(=O)NCCC(C)C)C2	19%	-2%

One compound at a time (already shown). Values in the order: Vaccinia mCherry	VACV Venus inh
CCc1cccc(OCC(=O)Nc2ccc(S(=O)(=O)Nc3ncccn3)cc2)c1 is listed with -5%	4%
CCOc1cc(/C=C2\SC(=O)N=C2N)ccc1O is listed with u	u
Oc1ccccc1Nc1nc(-c2ccccc2O)nc2ccccc12 is listed with -22%	-25%

Further results
SMILES	Vaccinia mCherry	VACV Venus inh
CCOC(=O)N1CCN(C(C(=O)NC2CCCC2)c2ccco2)CC1 (stereo not drawn)	-8%	-12%
COc1ccc(CN2CCCN(CC(=O)Nc3ccc4c(c3)OCCO4)S2(=O)=O)cc1	-5%	5%
CCN(CC)S(=O)(=O)c1ccc(NC(=O)CCNC(=O)c2ccccc2)cc1	-10%	-3%
CCOc1cc(/C=N/NC(=O)c2cc(C3CC3)[nH]n2)ccc1O	-1%	-13%
O=C(CSc1nnc(NC(=O)c2c(F)cccc2F)s1)NCc1ccccc1	-14%	3%
COc1ccccc1/C=C/C(=O)Nc1ccc(S(=O)(=O)Nc2cc(C)nc(C)n2)cc1	-11%	-4%
COC(=O)C(NC(C)=O)(Nc1nc(C)cs1)C(F)(F)F (stereo not drawn)	-8%	-3%
CC(NC(=O)CCc1nnc(Cc2cccc(C(F)(F)F)c2)o1)C1CC1 (stereo not drawn)	i	-10%

Assay outcomes as filed in PubChem.
